# StopGo FLuc = lowers the firefly signal of an FMDV 2A StopGo reporter; 0.23% of 120,000 active; Potency, µM (titrated, usually from 57.5 µM), for inactives: top-dose signal change, negative = less light; HEK cells with a luciferase reporter of 2A StopGo recoding; active = well fitted falling curve with a large enough effect; inconclusive = small, poorly fitted or top-dose-only effect; inactive = no such curve, though single readings can be large or run the other way; further: nearly all actives have a fitted effect of over 60% in size; overnight with compound
# StopGo RLuc = lowers the Renilla signal of an FMDV 2A StopGo reporter. HEK cells with a luciferase reporter of 2A StopGo recoding. Potency, µM (top dose mostly 57.5 µM), without a hit: top-dose signal change, negative = less light. 0.32% of 120,000 active. AID 1745857; active means well fitted falling curve with a large enough effect; inconclusive means small, poorly fitted or top-dose-only effect; inactive means no such curve, though single readings can be large or run the other way; further: nearly all actives have a fitted effect of over 55% in size; overnight with compound
# Starred values were filed as active, the others as inactive; ? = inconclusive; & = joins results of further samples; [ ] = another dose, or the depositor's remark. On the % scale 0 is the no-effect control and ±100 the full control effect; potency means the concentration at half of the fitted maximal effect.
no.	Structure	StopGo FLuc	StopGo RLuc
1	COC(=O)c1cnn(-c2ccc(C(=O)Nc3ccc(F)c(F)c3)cc2)c1N	15%	-1%
2	O=C(CC1(O)C(=O)N(CN2CCOCC2)c2ccccc21)c1ccc2c(c1)CCCC2 (stereo not given)	75%[activator]	110%[activator]
3	CCCN(CC#N)CC(=O)NC1(C#N)CCCCCC1	-7%	7%
4	Cc1ccc(CSc2nc3ccc(NC(=O)CC(C)C)cc3s2)cc1	-7%	-10%
5	CCN(CC)C(=O)Cn1c(=O)n(CCC(=O)Nc2ccc(F)cc2)c(=O)c2sccc21	-12%	-9%
6	Cc1ccc(C2CC(=O)c3cn4nc(C(F)(F)F)nc4nc3C2)cc1 (stereo not given)	16%	6%
7	O=S(=O)(c1ccccc1F)N1CCN(c2nc(-c3cccs3)nc3ccccc23)CC1	25%	4%
8	Cc1nc2c(-c3ccc(F)cc3)c(C)nn2c(C)c1CCC(=O)N1CCN(c2ccccc2)CC1	-9%	-13%
9	Cc1nc2ncnn2c(C)c1CCC(=O)NCc1cccc(Cl)c1	-22%	-14%
10	CCNC(=O)Nc1cc(S(=O)(=O)N2CCOCC2)ccc1NCC1CCCO1 (stereo not given)	-7%	-1%
11	Cc1cc(Br)ccc1NC(=O)CN1C(=O)c2cccnc2Sc2ccccc21	0%	1%
12	O=S(=O)(NC1c2ccccc2Oc2ccccc21)c1cccs1	0%	-29%
13	CCOC(=O)c1cc(-c2ccccc2)n(CC(=O)NC2CCC(C)CC2)c1C (stereo not given)	-18%	3%
14	Cc1nn(-c2ccccc2)cc1C(=O)N1CCC(C(C)C(=O)NCc2ccccc2)CC1 (stereo not given)	-1%	-3%
15	CC(C)C(C(=O)NC1CCCCC1)c1ccc(Cl)cc1 (stereo not given)	-8%	-1%
16	COCCCNc1nc2c(S(=O)(=O)c3ccc(C)c(C)c3)nnn2c2ccc(Cl)cc12	1%	6%
17	COC(=O)C(C)Sc1ccc2nnc(CCNS(=O)(=O)c3ccc(C)cc3)n2n1 (stereo not given)	-19%	-6%
18	CC(=O)N1CCC(C(=O)NC(c2cccs2)C(C)C)CC1 (stereo not given)	79%[activator]	0%
19	CCOc1ccccc1Nc1sc(C(=O)c2ccc(Cl)cc2)c(N)c1C(=O)NCCc1ccccc1	9%	-5%
20	COc1cc(C)c(Br)cc1S(=O)(=O)N1CCCCC1C (stereo not given)	-4%	155%[activator]
21	CCCCn1nc(C(=O)N[C@@H](Cc2ccccc2)C(=O)O)c2ccccc2c1=O	50%[activator]	77%[activator]
22	CC(NC(=O)CSc1nc(-c2cccs2)nc2ccccc12)c1ccco1 (stereo not given)	8%	-8%
23	CCOc1ccc2nc(N3CCCC(C(=O)NCc4ccccc4Cl)C3)sc2c1 (stereo not given)	52%[activator]	-2%
24	Cc1ccc(C)c(NC(=O)CN(C)C(=O)c2nn(C)c(=O)c3ccccc23)c1	7%	-1%
25	N#C/C(=C/c1ccc(Oc2ccccc2)cc1)c1nc2ccccc2[nH]1	148%[activator]	35%[activator]
26	COC(=O)c1ccc(CBr)cc1	7%	2%
27	Cc1ccc(C(=O)O)cc1Nc1nc2ccccc2n2nnnc12	170%[activator]	21%
28	CCOC(=O)Cc1ccc(NC(=O)NCC(=O)N2CCc3ccccc32)cc1	8%	9%
29	Cc1ccc(S(=O)(=O)Nc2cccc(-c3cn4cccc(C)c4n3)c2)cc1	23%	341%[activator]
30	Cc1ccc(NC(=O)N2CCN(S(=O)(=O)c3cc4c(cc3Cl)NC(=O)C(C)O4)CC2)cc1C (stereo not given)	-13%	-10%
31	CCCCSc1nnc2[nH]c(=O)cc(C)n12	-14%	-10%
32	CCNC(=O)NC(=O)C(C)OC(=O)c1ccc(C(=O)OC)cc1 (stereo not given)	6%	8%
33	CC(C)(C)OC(=O)N1CCC(c2c(C(=O)NCCN3CCc4ccccc4C3)cnn2-c2ccc(F)cc2)CC1	-23%	-12%
34	CCn1nc(C(=O)OC(C)C(=O)c2ccc(C(C)(C)C)cc2)c2ccccc2c1=O (stereo not given)	1%	6%
35	Cc1nnc2sc(-c3cccc(NC(=O)C(C)(C)C)c3)nn12	29%	3%
36	CN(C)S(=O)(=O)c1ccc2oc(SCCOc3ccc(F)cc3)nc2c1	?	?
37	Cc1cccc(OCCNc2nc3c(c(=O)n(C)c(=O)n3C)n2C)c1	18%	10%
38	Cc1c(/C=C/c2cc[n+](C)cc2)c2ccccc2n1C	?	?
39	CCCCNC(=O)c1[nH]c2ccccc2c1Sc1ccc(C)cc1	-7%	34%[activator]
40	CCCOC(=O)c1ccc(Nc2nc3ccccc3nc2-n2nc(C)cc2C)cc1	-8%	-6%
41	COc1ccc(NC(=O)CN(c2ccccc2OC)S(C)(=O)=O)c(OC)c1	-14%	8%
42	O=C(NCCc1ccco1)C1CCN(c2ncc(C(F)(F)F)cc2Cl)CC1	14%	-1%
43	COc1cccc(-c2nc3c(c(SCc4ccccc4)n2)Cc2c(CO)cnc(C)c2O3)c1	-19%	-6%
44	CC(C)C1c2cccn2-c2ccccc2CN1C(=O)Nc1ccccc1F (stereo not given)	-15%	8%
45	CN(CC(=O)Nc1ccc(F)c(F)c1)S(=O)(=O)Cc1ccc(C#N)cc1	-5%	23%
46	Cc1cc(C)n(-c2nc3c(c(=O)n(C)c(=O)n3C)n2CCO)n1	4%	14%
47	Cc1ccc(NC(=O)CCc2ncc(-c3c(F)cccc3F)o2)c(C)c1	13%	3%
48	Cc1ccc(CNC(=O)c2cc(=O)c3cc(C)ccc3o2)cc1	-6%&-10%	-6%&-3%
49	CCCOc1ccc(-c2cc(C(=O)O)c3cccc(C)c3n2)cc1	40%[activator]	7%
50	Cc1c(-c2ccc(Br)cc2)c(=O)oc2ccc(OS(=O)(=O)c3ccccc3)cc12	7%	-17%
51	NS(=O)(=O)c1ccc(CCNC(=O)c2cc(=O)c3ccccc3o2)cc1	0%	-7%
52	CC(=O)N1CCN(c2ccc(NC(=O)COc3c(C)cc(C)cc3Cl)cc2)CC1	-5%	1%
53	Cc1cccc(OC(=O)CSc2nnc(-c3ccc4c(c3)OCO4)o2)c1C	-12%	-12%
54	O=Cc1ccc(OCc2ccc(C(=O)O)cc2)c(Cl)c1	85%[activator]	-11%
55	CC(=O)c1cccc(NC(=O)C(C)Oc2ccc3c(C(C)C)cc(=O)oc3c2)c1 (stereo not given)	-12%	4%
56	CN1CC2(Cc3c1ccc1ccccc31)C(=O)NC(=O)N(CCc1ccccc1)C2=O (stereo not given)	-6%	-23%
57	CN1CCCCC1CC(=O)O (stereo not given)	10%	6%
58	O=C(NCC(F)(F)F)c1ccccc1Oc1ccccc1	3%	16%
59	CN(C)c1ccc(CNC(=O)C2CCN(c3nc4ccccc4[nH]3)CC2)cc1	8%	-15%
60	Cc1n[nH]c(C)c1C(=O)CC1(O)C(=O)N(C)c2ccccc21 (stereo not given)	-9%	-10%

# (continued)
no.	Structure	StopGo FLuc	StopGo RLuc
61	Cc1ccc(OC(=O)c2cc(-c3ccc4c(c3)OCCO4)on2)c(C)c1	3%	-3%
62	CC1CCCCN1Cc1c(O)ccc2c(=O)c(-c3ccc(Cl)cc3)c(C(F)(F)F)oc12 (stereo not given)	6%	-11%
63	C#CC[N+](C)(C)CCCCCCCCCC	?	?
64	CCCCn1nc(C(=O)N(C)Cc2nc3ccccc3c(=O)[nH]2)c2ccccc2c1=O	33%[activator]	32%[activator]
65	CC(C)Cc1nc(OCC(=O)N2CCOCC2)c(C#N)c2c1CCCC2	-18%	-12%
66	O=C(CCc1nc(-c2cccs2)no1)Nc1ccc([N+](=O)[O-])cc1	-13%	-16%
67	Cc1ccccc1Nc1nnc(-c2ccc(C)c(S(=O)(=O)NCCO)c2)c2ccccc12	3%	232%[activator]
68	Cc1ccc(-n2nnnc2CNC(=O)C2CC(=O)N(c3ccccc3)C2)cc1C (stereo not given)	-14%	-8%
69	O=S(=O)(c1cccc(Br)c1)N1CCN(c2nc3ccccc3o2)CC1	38%	20%
70	Cc1cccc(C)c1-n1nnnc1C1(Nc2ccc3c(c2)OCCO3)CCCC1	-4%	128%[activator]
71	Cc1cccc(Nc2ccc3ccccc3c2)c1	259%[activator]	34%[activator]
72	Cc1ccc2c(c1)C1CN(C)CCC1N2 (stereo not given)	-9%[27 µM]	-5%[23.8 µM]
73	COCCn1cnc2c1c(=O)n(CC(=O)Nc1ccccc1)c(=O)n2Cc1ccccc1	-6%	-5%
74	COc1ccc(CCNC(=O)CCc2cn(Cc3ccc(F)cc3)c3ccccc23)cc1OC	-4%	-10%
75	O=C(CSc1nnc(Cc2ccccc2)o1)Nc1ccc(F)cc1	-7%	-12%
76	CCOc1cccc(C2c3c(oc4ccc(F)cc4c3=O)C(=O)N2CCOC)c1 (stereo not given)	-20%	-12%
77	O=C(NC1CCN(Cc2ccccc2)CC1)c1cc2cc(Cl)ccc2[nH]1	14%	-8%
78	CC(=O)c1c(C)nc(C2CC2)nc1SCC(=O)NC(C)C(C)C (stereo not given)	6%	2%
79	COc1cccc(CNC(=O)CN2C(=O)CSc3ccc(S(=O)(=O)N4CCCC4)cc32)c1	-22%	0%
80	Cc1cc2nc(C)c(C)nc2cc1C	0%	-4%
81	CC(C)c1c(CN(C)C(C)Cc2ccccc2)n(C)n(-c2ccccc2)c1=O (stereo not given)	-6%	-2%
82	Cc1ccc(N2CC(c3nnc(NC(=O)c4ccc(NC(=O)C(C)C)cc4)s3)CC2=O)cc1Cl (stereo not given)	10%	-2%
83	COCCn1c(SCc2ccc(F)cc2)nc2c1c(=O)[nH]c(=O)n2C	19%	5%
84	CCOC(=O)C1=C(C)N=C2SCC(=O)N2C1c1cccc(OC)c1OC (stereo not given)	0%	0%
85	CCC1CCC(c2ccc(C(C)=O)cc2)CC1 (stereo not given)	80%[activator]	11%
86	CCOC(=O)C1C(=O)C=C(c2ccc(F)cc2)CC1c1c(F)cccc1Cl (stereo not given)	-14%	16%
87	CCOC(=O)c1cccc(NC(=O)CCC(=O)N2CC(C)Oc3ccc(C)cc32)c1 (stereo not given)	-20%	-11%
88	CCCCSCCCNC(=O)CN1C(=O)COc2ccc(S(=O)(=O)N3CCCC3)cc21	-13%	16%
89	O=C(CSc1ccc2c(c1)OCCCO2)Nc1ccc2c(c1)OCO2	0%	37%[activator]
90	COc1ccc2sc(N(Cc3cccnc3)C(=O)c3ccc4c(c3)OCCO4)nc2c1	12%	-11%
91	O=C(NCCc1csc(-c2cccc(F)c2)n1)c1ccco1	17%	-8%
92	CCCCCCOC(=O)NC(=N)c1ccc(NCc2nc3cc(C(=O)N(CCC(=O)OCC)c4ccccn4)ccc3n2C)cc1	-31%	-18%
93	CNC(=O)c1sc(Nc2cc(C)ccc2C)nc1C	15%	5%
94	COc1cc(C)ccc1OCCSc1nnc(-c2ccc(C)cc2)o1	3%	-7%
95	Cc1cc(N2CCOCC2)nc(N2CCN(C(=O)Nc3ccc(F)cc3)CC2)n1	9%	-8%
96	COc1ccc(N2C(=O)CCS2(=O)=O)cc1S(=O)(=O)N1CCCc2ccccc21	13%	14%

# Overlap with the part before: two entries, then new ones.
no.	Structure	StopGo FLuc	StopGo RLuc
95	Cc1cc(N2CCOCC2)nc(N2CCN(C(=O)Nc3ccc(F)cc3)CC2)n1	9%	-8%
96	COc1ccc(N2C(=O)CCS2(=O)=O)cc1S(=O)(=O)N1CCCc2ccccc21	13%	14%
97	COc1cc(NC(=O)CN2Cc3ccccc3C2=O)cc(OC)c1OC	-20%	-9%
98	COc1ccccc1OCc1ccc(C(=O)Nc2ccc(C)c(C)c2)o1	20%	-13%
99	Cc1ccc(NC(=O)c2cnc(NCc3ccc4c(c3)OCO4)nc2C)cc1C	0%	16%
100	CCOc1ccc(-c2csc(-c3nc(-c4ccc(Br)s4)cs3)n2)cc1	-12%	-8%
101	CC(C)(C)OC(=O)N1CCC(c2c(C(=O)N3CCCCC3)cnn2-c2cccc(F)c2)CC1	6%	-19%
102	CC1(C)CC(=O)C2=C(C1)OC(N)=C(C#N)C2c1ccc(O)cc1 (stereo not given)	-1%	-1%
103	CC(C)CCNC(=O)C(=O)NC1CCCCC1	110%[activator]	3%
104	CCOc1ccc(NC(=O)C2CCCN(c3cnccn3)C2)cc1 (stereo not given)	-17%	19%
105	CCn1cnc2c1c(=O)n(CC(=O)Nc1ccc(N3CCCC3=O)cc1)c(=O)n2Cc1ccccc1	0%	11%
106	CCS(=O)(=O)N1CCc2cc(C(=O)CSc3ccc(Cl)cc3)ccc21	-47%	?
107	COc1ccc(N(Cc2cccs2)C(=O)COc2cccc(Cl)c2)cc1	-24%	46%[activator]
108	COc1cc(NC(=O)Cn2nc(C(F)(F)F)c3c2CCC3)cc(OC)c1OC	15%	-3%
109	COc1ccc(-c2noc(-c3ccc(N4CCCCC4C)c([N+](=O)[O-])c3)n2)cc1OC (stereo not given)	-1%	12%
110	COc1ccc(N2CCN(S(=O)(=O)c3ccc(-c4cnc(C5CC5)o4)cc3)CC2)cc1	-13%	-3%
111	Cc1ccccc1CSc1ncc(Cl)c(C(=O)NCc2ccccc2)n1	-10%	-12%

# Entries of single compounds, quoted from the list. Order of values: StopGo FLuc, StopGo RLuc
# `COc1cc(NC(=O)CN2Cc3ccccc3C2=O)cc(OC)c1OC` reads -20%, -9%
# `CCS(=O)(=O)N1CCc2cc(C(=O)CSc3ccc(Cl)cc3)ccc21` reads -47%, ?
# `COc1ccccc1OCc1ccc(C(=O)Nc2ccc(C)c(C)c2)o1` reads 20%, -13%
# `CCn1cnc2c1c(=O)n(CC(=O)Nc1ccc(N3CCCC3=O)cc1)c(=O)n2Cc1ccccc1` reads 0%, 11%
# `COc1ccc(N2CCN(S(=O)(=O)c3ccc(-c4cnc(C5CC5)o4)cc3)CC2)cc1` reads -13%, -3%

# Compound activity: PubChem, National Center for Advancing Translational Sciences (NCATS)

# Rows are unselected; any-hit rate near 0.55%.
